Source: PubChem BioAssay
Marburg entry inh = qHTS for inhibitors of binding or entry into cells for Marburg Virus. Marburg virus pseudotyped entry inhibition, cell reporter; control for the full effect not named in the record; about a third of the inactives were read at about 46 µM. Potency, µM (series often up to 37.8 µM), for the others: at the highest dose activity change, negative = inhibition, most hits filed as inhibitors. 300,000 tested, 1.8% active. AID 540276, 2011; active = well fitted inhibition curve with a large enough effect; inconclusive = small, poorly fitted or top-dose-only effect, or effect the other way; inactive = flat fitted curve, though single readings scatter; tested in HEK293 cells; about a fifth of its hits are not listed in these tables; also: % is scaled to controls: 0 for no effect and ±100 for the full control effect; luciferase read-out
SARS PLpro yeast = qHTS of Yeast-based Assay for SARS-CoV PLP; S. cerevisiae expressing SARS-CoV PLpro, growth rescue; control for the full effect not named in the record; Potency, µM (highest dose often 32.9 µM), without a hit: at the highest dose activity, positive = growth rescue; 330,000 tested, 0.19% active; AID 485353, 2010; also: 0% is about no effect; nearly all actives have a fitted effect of over 55% in size; growth read by luminescence after 48 h
Cruzain inh Det = qHTS Assay for Promiscuous and Specific Inhibitors of Cruzain (with detergent). Potency, µM, for the others: max response, negative = inhibition, hits mostly inhibitors. 200,000 tested, 0.43% active. purified cruzain, Z-FR-AMC fluorescence, 0.01% Triton. AID 1478, 2009; active = well fitted curve in the direction sought with a large enough effect; inconclusive = small, poorly fitted or top-dose-only effect, or another doubt; inactive = no such curve, though single readings can be large; an effect the other way counts as inactive or inconclusive;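 also: plate controls were neutral wells for no effect and buffer without enzyme for full effect; nearly all actives have a fitted effect of over 40% in size; top concentration of the series not given in the record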
Target sequence (P25779 123-467 limits assumed): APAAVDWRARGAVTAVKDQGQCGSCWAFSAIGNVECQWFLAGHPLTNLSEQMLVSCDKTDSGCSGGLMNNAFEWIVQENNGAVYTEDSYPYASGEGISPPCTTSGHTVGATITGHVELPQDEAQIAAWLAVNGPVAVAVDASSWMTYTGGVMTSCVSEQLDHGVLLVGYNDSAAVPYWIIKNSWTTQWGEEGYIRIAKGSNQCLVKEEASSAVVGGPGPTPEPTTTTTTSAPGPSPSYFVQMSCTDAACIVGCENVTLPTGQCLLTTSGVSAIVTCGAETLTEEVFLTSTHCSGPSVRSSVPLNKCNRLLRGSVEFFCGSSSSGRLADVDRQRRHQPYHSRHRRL
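Cysteine protease activity tested under reducing, mildly acidic conditions (100 mM sodium acetate pH 5.5, 5 mM DTT) plus 0.01% Triton X-100. Cruzain 1.5 nM; substrate Z-FR-AMC 2 uM; 15 min compound preincubation at room temperature.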
LASV entry inh = qHTS for Inhibitors of binding or entry into cells for Lassa Virus; Lassa virus pseudotype entry inhibition, cell reporter; control for the full effect not named in the record; Potency, µM (series often up to 37.9 µM), inactives show at the highest dose activity change, negative = inhibition, usual class: inhibitors; 300,000 tested, 1.2% active; active means well fitted inhibition curve with a large enough effect; inconclusive means small, poorly fitted or top-dose-only effect, or effect the other way; inactive means flat fitted curve, though single readings scatter; tested in HEK293 cells; also: % is scaled to controls: 0 for no effect and ±100 for the full control effect; nearly all actives have a fitted effect of over 50% in size; luciferase read-out
RE007 growth inh = qHTS Assay for Inhibitors of the HIV-1 protein Vpr; S. pombe RE007 Vpr strain, BacTiter-Glo ATP luminescence, 24 h; control for the full effect not named in the record; 360,000 tested, 0.21% active; Potency, µM (top dose mostly 92.2 µM), inactives show at the highest dose activity change, negative = less growth; AID 651644, 2012; active = well fitted falling curve with a large enough effect; inconclusive = small, poorly fitted or top-dose-only effect; inactive = no such curve, though single readings can be large or run the other way;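 also: % is scaled to controls: 0 for no effect and ±100 for the full control effect; nearly all actives have a fitted effect of over 50% in size; the assay follows cell death caused by Vpr and the record does not say whether a fall means rescue or toxicity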
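Fission yeast RE007 carrying one integrated HIV-1 vpr copy, seeded at OD 0.01 in PMG+AL medium with 23 nL pinned compound. Grown 24 h at 30 degrees; viability read by BacTiter-Glo luminescence after 5 min.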
StopGo reporter = High Throughput Screening for Foot and Mouth Disease Virus Antivirals | 410,000 tested, 1.2% active | Potency, µM (series often up to 57.9 µM), inactives show at the highest dose signal change, negative = less light | human cells with a luciferase reporter of 2A StopGo recoding; control for the full effect not named in the record; active = well fitted falling curve with a large enough effect; inconclusive = small, poorly fitted or top-dose-only effect; inactive = no such curve, though single readings can be large or run the other way; tested in HEK293T cells; also: % is scaled to controls: 0 for no effect and ±100 for the full control effect; nearly all actives have a fitted effect of over 45% in size; luciferase light after 4 h
Cruzain inh noDet = qHTS Assay for Promiscuous and Specific Inhibitors of Cruzain (without detergent) | Potency, µM, for inactives: max response, negative = inhibition, usual class: inhibitors | purified cruzain, Z-FR-AMC fluorescence, no detergent | AID 1476, 2009 | 200,000 tested, 2.3% active | Cruzipain (Trypanosoma cruzi), P25779; active = well fitted curve in the direction sought with a large enough effect; inconclusive = small, poorly fitted or top-dose-only effect, or another doubt; inactive = no such curve, though single readings can be large; an effect the other way counts as inactive or inconclusive;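 also: plate controls were enzyme without inhibitor for no effect and buffer without enzyme for full effect; nearly all actives have a fitted effect of over 40% in size; top concentration of the series not given in the record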
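Detergent-free condition (0.00005% Triton X-100) in acetate buffer pH 5.5 with DTT. 1.5 nM enzyme and compound were pre-mixed 15 min, then 2 uM Z-FR-AMC substrate added; reaction progress from fluorescence change between first and third reads (60 s).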
NS1 function inh = qHTS Assay for Inhibitors of Influenza NS1 Protein Function. S. cerevisiae slowed by influenza A NS1, growth recovery by OD600. 270,000 tested, 0.4% active. Potency, µM (top dose mostly 46.1 µM), for the others: at the highest dose activity, positive = more growth; also: actives are rising curves; nearly all actives have a fitted effect of over 50% in size
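OD600 was taken as the measure of yeast growth restored by compound in an NS1-expressing S. cerevisiae strain. Cells had been washed out of glucose medium and diluted 1:100 into galactose -URA medium, pH 6.0.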
* hit, by the source's call; ? = inconclusive; . = not tested or not shown; & = joins results of further samples; [ ] = another dose, or the depositor's remark. Unless noted, calls follow the shape of the dose curve; as a rule, active means well fitted rising curve with a large enough effect; inconclusive means small, poorly fitted or top-dose-only effect; inactive means no such curve, though single readings can be large or run the other way. Potency is read from the fitted curve at half-maximal effect.

SMILES	Marburg entry inh	SARS PLpro yeast	Cruzain inh Det	LASV entry inh	RE007 growth inh	StopGo reporter	Cruzain inh noDet	NS1 function inh
CC(C)CSc1oc(-c2ccco2)nc1S(=O)(=O)c1ccccc1	.	-7.1%	.	.	10.5%	18.0%	.	-2.9%
O=C(Cn1c(=O)sc2ccccc21)Nc1ccc(O)cc1	1.2%	2.7%	.	3.6%	-23.9%	-21.0%	.	.
COc1ccc(C(C)=O)cc1Cn1cnc2c(cnn2C)c1=O	.	0.2%	.	.	-2.6%	3.1%	.	2.4%
O=P1(NCc2ccco2)COc2ccccc2OC1	6.2%	11.0%	1.7%	17.0%	3.4%	14.4%	-8.4%	10.1%
N/C(=N\OC(=O)c1ccccc1F)c1cccc([N+](=O)[O-])c1	.	4.6%	.	.	1.5%	69.2%[activator]	.	-20.1%
Cc1cccc(NC(=O)C2CCCN(S(=O)(=O)c3cccc4nsnc34)C2)n1 (centres undefined)	-0.6%&-9.2%	3.1%	-2.6%	25.4%	0.4%	?	-6.9%	12.1%
CC(C)n1c(CN2CCN(Cc3ccccc3)CC2)nc2ccccc21	.	-0.3%	.	.	-11.7%	-14.5%	.	3.3%
Cn1c(=O)n(C)c2cc(NS(=O)(=O)c3ccc(Cl)cc3)c(NCc3ccccc3)cc21	?	.	2.4%	?	.	8.7%	-6.2%	.
CC1CC(C)CN(C(=O)c2ccc3ncsc3c2)C1 (centres undefined)	-4.2%	3.5%	.	?	30.8%	-15.2%	.	.
CCC(C)Nc1nc2c(c(=O)n(C)c(=O)n2C)n1Cc1ccc(Cl)cc1 (centres undefined)	.	4.8%	.	.	0.4%	-9.9%	.	0.1%
O=C(Cn1nc(C(=O)O)c2ccccc2c1=O)c1cc(F)ccc1F	.	0.7%	.	.	-16.6%	-0.6%	.	4.6%
CC(C)n1nc(C(=O)OCn2nnc3ccccc3c2=O)c2ccccc2c1=O	20.9%	18.0%	-7.7%	8.8%	2.8%	-13.6%	-8.3%	1.4%
CCOC(=O)N1CCC(N2CCCC(C(=O)c3ccc4cc(OC)ccc4c3)C2)CC1 (centres undefined)	?	1.9%	.	?	-21.0%	-5.8%	.	-0.3%
Cc1cc(NC(=O)c2ccc(N3CCCC3)c([N+](=O)[O-])c2)no1	?	-0.5%	.	1.2%	-10.4%	33.2%[activator]	.	.
COc1ccc(-c2noc(CN(C)Cc3ccc(C)o3)n2)cc1	.	?	.	.	-7.2%	0.9%	.	-0.3%
CC(=O)OCc1cnc(C)c2oc(=O)c(C(=O)Nc3cc(F)ccc3C)cc12	2.0%[46.1 µM]	.	1.3%	4.4%[46.1 µM]	.	-14.3%	5.6%	.
COc1ccc(-n2nc(C(=O)NCC(=O)NCC3COc4ccccc4O3)c3ccccc3c2=O)cc1 (centres undefined)	?	-0.3%	.	19.8%[46.1 µM]	7.4%	-11.3%	.	-9.4%
O=C(O)CCCNS(=O)(=O)c1ccc(F)cc1	5.4%	-15.6%	3.7%	4.4%	22.8%	22.4%	1.0%	-0.5%
Cc1cc(C)c2c(c1C)C(=O)CCC2	-16.7%[46.1 µM]	.	.	27.3%[46.1 µM]	-3.5%	-9.9%	.	.
CC(CN1CCOCC1)(NS(=O)(=O)c1ccccc1)c1ccccc1 (centres undefined)	-0.1%	4.4%	4.0%	-23.5%	-1.9%	9.5%	6.5%	1.7%
CCCNC(=S)Nc1ccc(Cl)cc1C	0.7%	?	1.2%	0.4%	-0.8%	-11.8%	12.6%	11.1%
OC(C#CCN1CCOCC1)(c1ccccc1)C1CC1 (centres undefined)	6.5%	-1.7%	6.5%	-8.9%	-6.0%	13.9%	3.0%	-0.3%
CCc1nn(CC(=O)N2CCN(c3ccc(Cl)cc3)CC2)c(=O)c2cc3occc3n12	-0.1%[46.1 µM]	.	-2.9%	1.5%[46.1 µM]	.	?	5.6%	.
O=C(Nc1cccc(C(F)(F)F)c1)c1cccnc1NCCO	18.1%[46.1 µM]	2.9%	.	-23.9%[46.1 µM]	-12.4%	-14.9%	.	13.5%
CCOc1ccc(NC(=O)CSc2nc3c([nH]c4ccccc43)c(=O)n2C)cc1	.	0.1%	.	.	4.3%	-14.0%	.	9.6%
The results go on.
SMILES	Marburg entry inh	SARS PLpro yeast	Cruzain inh Det	LASV entry inh	RE007 growth inh	StopGo reporter	Cruzain inh noDet	NS1 function inh
COC(=O)c1sccc1NC(=O)CCC1CCCCC1	?	2.3%	-3.8%	-3.1%	8.9%	13.7%	3.3%	-8.1%
Cc1ccccc1CS(=O)(=O)Cc1ccc(C(=O)NCc2ccco2)o1	16.1%	3.2%	0.6%	-18.0%	-17.1%	-26.4%	9.0%	12.6%
N#Cc1c2n(c3c(-c4ccccc4)ncnc13)CCC2	23.2%	0.1%	3.2%	-1.9%	5.3%	0.0%	7.1%	-6.9%
COc1ccccc1Oc1coc2c(CN3CCN(C)CC3)c(O)ccc2c1=O	12.7%	6.2%	1.5%	-5.9%	-5.6%	-3.2%	-5.0%	0.0%
Cc1ncc(CO)c2c1Oc1nc(-c3ccccc3F)nc(SCC(=O)N3CCCCC3)c1C2	.	.	-0.1%	-1.2%[46.1 µM]	.	-22.8%	-6.4%	.
CC(C)(C)C1CCc2onc(C(=O)Nc3cccc(O)c3)c2C1 (centres undefined)	.	-5.4%	-0.4%	.	.	.	5.3%	1.7%
O=C(NCCCc1ccccc1)C1CC1	-2.5%[14.2 µM]	.	.	10.8%	10.3%	11.5%	.	.
COc1ccc2c(Cn3cnc4cc([N+](=O)[O-])ccc4c3=O)cc(=O)oc2c1	4.47µM*	0.5%	.	?	14.3%	?	.	6.4%
CN(C)c1ccc(C(=O)Nc2c(C(=O)NC(C)(C)C)oc3ccccc23)cc1	.	.	-0.9%	-19.1%[46.1 µM]	.	-18.2%	-13.5%	.
O=C(COC(=O)CC1CC2CCC1C2)Nc1ccccc1Cl (centres undefined)	?	-9.1%	.	-3.5%	4.1%	-2.1%	.	.
COc1ccc(C2C(C(=O)N3CCN(c4ccccc4)CC3)c3ccccc3C(=O)N2C)cc1 (centres undefined)	?	4.0%	-0.3%	-2.9%	8.4%	?	-4.2%	-12.1%
O=C(CSc1ccccc1)NCc1cccnc1	0.0%	-2.2%	-4.5%	-9.3%	1.0%	6.8%	0.3%	3.6%
CSc1nnc(-c2ccc(NC(=O)CCc3ccccc3)cc2)n1C	16.1%	3.9%	2.7%	14.3%	-2.7%	-13.0%	1.4%	?
COc1ccc(CNC(=O)CSc2cc(=O)n(C)c3ccccc23)cc1	?	-0.4%	.	-19.7%[46.1 µM]	2.5%	7.4%	.	.
COc1ccc(-c2cc3nc(C)cc(-c4ccc(OC)cc4)n3n2)cc1	.	-2.4%	.	.	3.7%	-2.8%	.	14.9%
CCOc1ccc(C(=O)Nc2cccc(-c3nc4cccnc4o3)c2)cc1Cl	8.2%	-8.2%	-3.0%	25.9µM*	2.1%	7.5%	?	3.5%
CCc1ccc(/C=N/NC(=O)c2cc(-c3cccc([N+](=O)[O-])c3)n[nH]2)cc1	?	0.0%	.	?	-3.4%	-4.2%	.	1.1%
COc1ccc2[nH]c3nc(SCC(=O)Nc4cccc(NC(C)=O)c4)nnc3c2c1	.	0.9%	.	.	-15.0%	-7.3%	.	27.9%
COCCCN(CC(=O)Nc1ccc(N2CCOCC2)cc1)S(=O)(=O)c1ccc(C)cc1	23.0%	0.3%	.	-15.8%	2.8%	1.8%	.	.
COc1ccc(-c2nc(N)nc(C(F)(F)F)c2-c2cscn2)c(O)c1	.	0.2%	.	.	0.2%	-22.5%	.	7.2%
COC(=O)CCCC1=CC2=CC(=O)C(C)(OC(=O)c3cccs3)C(=O)C2=CN1C1CC1 (centres undefined)	?	2.3%	.	.	-14.4%	-7.8%	.	-1.9%
O=C(CSc1nc2ccccc2o1)N1CCCC1	11.8%	0.0%	-3.2%	5.2%	0.3%	42.5%[activator]	-2.6%	-4.9%
Cc1ccc2nc(NC(=O)c3cccn(Cc4ccccc4F)c3=O)sc2c1	.	.	-0.2%	-8.3%[46.1 µM]	.	22.7%	10.3%	.
O=C(Nc1ccc(S(=O)(=O)N2CCOCC2)cc1)c1cccnc1	-2.5%[46.1 µM]	1.5%	.	1.4%	10.6%	1.3%	.	8.6%
COc1ccc(Cl)cc1C(=O)NNC(=O)COC(=O)c1cccs1	-2.3%	-1.0%	.	1.6%	-4.6%	-6.5%	.	.
More records:
SMILES	Marburg entry inh	SARS PLpro yeast	Cruzain inh Det	LASV entry inh	RE007 growth inh	StopGo reporter	Cruzain inh noDet	NS1 function inh
CCOC(=O)N1CCC(NC(=O)c2ccc3c(c2)sc2nc(-c4cccc(OC)c4)cn23)CC1	.	23.8%	-7.8%	.	.	.	?	?
CCOc1ccc(NC(=O)CN(C)C(=O)c2cn(-c3ccccc3)nc2-c2cccs2)cc1OCC	-41.2%	-2.0%	.	-21.9%	-7.0%	-25.1%	.	6.0%
CCCC1C2C(=O)N(c3ccccc3OC)C(=O)C2ON1c1ccccc1 (centres undefined)	1.9%	0.8%	-6.5%	0.5%	4.2%	-19.6%	6.6%	?
O=C(N/N=C\c1ccc(-c2cccc(Cl)c2)o1)C(=O)NC1CCCC1	-3.7%	0.0%	.	-7.9%[46.1 µM]	-10.5%	-10.0%	.	-3.3%
NC(=O)COC(=O)c1ccc(Cl)c(S(=O)(=O)N2CCN(c3ccc(F)cc3)CC2)c1	.	-1.5%	.	.	0.6%	4.3%	.	0.5%
Cc1[nH]nc2c1C(c1ccc(-c3ccccc3C#N)o1)C(C#N)=C(N)O2 (centres undefined)	-13.9%	-17.7%	-5.7%	18.4%	-5.5%	?	-14.4%	-42.8%
O=c1c2ccccc2nnn1CSc1nc2ccccc2c(=O)n1Cc1ccco1	?	?	-1.8%	0.3%	24.0%	.	10µM*	2.9%
COc1cccc(/C=N/NC(=O)C(=O)Nc2ccccc2OC(F)(F)C(F)F)c1	?	2.9%	0.3%	8.0%	0.2%	-1.2%	-21.8%	-2.3%
COc1ccc2cc3cc(C(=O)NCCC(C)C)oc3nc2c1	9.8%	-0.9%	.	3.55µM*	1.3%	6.9%	.	-1.8%
CCOCCn1c(CN2CCN(c3cccc(Cl)c3)CC2)nc2c1c(=O)n(C)c(=O)n2C	.	-8.2%	-11.4%	.	1.3%	?	?	-62.0%
CCOc1ccc2nc(N(Cc3ccccc3)C(=O)CCNC(C)=O)sc2c1	4.2%	1.6%	.	-1.0%	1.0%	33.8%[activator]	.	-11.3%
